# High-throughput results as filed in PubChem BioAssay.
# TRPML1 inh: blocks the human TRPML1 channel | Q9GZU1 | TRPML1-inducible cells, Ca2+ dye fluorescence, FDSS; hits give low values; inhibition of EC80 agonist-evoked calcium signal | activity change, negative = inhibition, % (test concentration not listed) | hit rate 0.02% among 390,000 | AID 624415; in the data active means activity change below about -50%; inconclusive means about -30% to -50%; inactive means above about -30%;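 note: stimulus is agonist 54-4 at its EC80 concentration; % is set by controls: 0 for no effect and ±100 for the full control effect; compound concentration not given in the record; the text of the record puts the active cut at -80%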
#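 Tet-induced TRPML1-DL cells loaded with Ca8 no-wash calcium dye were read kinetically on FDSS. Compound addition was followed by EC80 agonist 54-4 (4 uM final); inhibition was read over 110 s.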
# CtBP-E1A inh: inhibitors of CtBP/E1A interaction. AlphaScreen GST-E1A/His-CtBP binding, 1536-well; hits give low values; control for the full effect not named in the record. activity change, % (test concentration not listed). hit rate 0.49% among 340,000; in the data active means activity change below about -65%; inconclusive means about -30% to -65%; inactive means above about -30%; note: % is set by controls: 0 for no effect and ±100 for the full control effect; compound concentration not given in the record
#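 Homogeneous bead-based format: GST-tagged E1A captured on glutathione donor beads, His-tagged CtBP on nickel acceptor beads; compounds precede bead addition by 2 h at 37 °C.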
# Six1-Eya2 blk: blocks human Six1 binding to Eya2 | Q15475+O00167 | AlphaScreen GST-Six1/His-Eya2 binding, biochemical; hits give low values; control for the full effect not named in the record | activity change, % (no concentration beside the values) | hit rate 0.56% among 360,000 | AID 651725; in the data active = activity change below about -65%; inconclusive = about -30% to -65%; inactive = above about -30%; note: % is set by controls: 0 for no effect and ±100 for the full control effect; compound concentration not given in the record
#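 Compounds are tested against tagged Six1 and Eya2 proteins bridged by glutathione donor and nickel acceptor beads; after a one-hour incubation at 37 °C without light, AlphaScreen emission is recorded.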
# TRPV1 PAM: human TRPV1 potentiation | AID 540277 | potentiation, % at 8.33 µM | TRPV1-expressing cells, Fluo-8 calcium influx, capsaicin EC20 potentiation; host cell line not named in the record; control for the full effect not named in the record | Q8NER1 | hit rate 0.02% among 320,000; active means potentiation above 80%; inconclusive means 30% to 80%; inactive means below 30%; note: 0% is about no effect
# Target sequence (Q8NER1 whole entry, looked up): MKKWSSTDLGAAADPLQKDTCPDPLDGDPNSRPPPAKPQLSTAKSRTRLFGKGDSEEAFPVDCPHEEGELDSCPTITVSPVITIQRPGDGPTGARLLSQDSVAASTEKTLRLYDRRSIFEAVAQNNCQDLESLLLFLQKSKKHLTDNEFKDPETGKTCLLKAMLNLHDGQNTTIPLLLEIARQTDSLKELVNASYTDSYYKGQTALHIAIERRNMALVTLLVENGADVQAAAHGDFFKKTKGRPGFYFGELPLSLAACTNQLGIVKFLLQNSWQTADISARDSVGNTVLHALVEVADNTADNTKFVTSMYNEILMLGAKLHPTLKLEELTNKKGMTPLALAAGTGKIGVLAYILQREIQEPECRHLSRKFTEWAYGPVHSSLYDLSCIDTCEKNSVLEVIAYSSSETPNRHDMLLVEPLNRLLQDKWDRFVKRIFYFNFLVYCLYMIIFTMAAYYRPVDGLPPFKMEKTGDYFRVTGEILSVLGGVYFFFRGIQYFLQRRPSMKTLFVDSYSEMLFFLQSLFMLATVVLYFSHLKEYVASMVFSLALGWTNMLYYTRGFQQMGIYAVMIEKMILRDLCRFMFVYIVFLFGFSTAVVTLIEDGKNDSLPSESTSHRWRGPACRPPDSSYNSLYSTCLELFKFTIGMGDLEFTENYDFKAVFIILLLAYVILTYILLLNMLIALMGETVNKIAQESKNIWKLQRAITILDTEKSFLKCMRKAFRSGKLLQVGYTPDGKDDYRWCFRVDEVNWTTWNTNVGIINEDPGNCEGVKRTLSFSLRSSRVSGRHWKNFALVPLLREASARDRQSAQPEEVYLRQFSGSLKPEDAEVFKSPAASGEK
#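 TRPV1-expressing cells were cultured overnight at 35.5C and loaded with Fluo-8 calcium dye for 40 to 90 min at room temperature. After a 10 s baseline, compound was added and calcium influx was read kinetically for 3 min (ex 480/em 520 nm).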
# TRPML1 agonist: agonists of human TRPML1 channel; TRPML1-expressing cells, Ca2+ dye fluorescence, FDSS; host cell line not named in the record; reference of the full effect not given here; activation, % (test concentration not listed); hit rate 0.12% among 410,000; in the data active = activation above about 50%; inconclusive = about 30% to 50%; inactive = below about 30%; note: 0% is about no effect; the text of the record puts the active cut at 80%
#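 TRPML1-DL cells, Tet-induced overnight (~16 h, 37 degrees C), loaded 45-90 min at room temperature with Ca8 no-wash calcium dye plus quencher. FDSS fluorescence: 10 s baseline, compound pin-transfer, 110 s agonist read, then EC80 54-4 (4uM final) and 110 s antagonist read.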
# D2 PAM: positive allosteric modulators of human D2 dopamine receptor; potentiation, % (test concentration not listed); DiscoveRx D2 beta-arrestin cells, luminescence, 90 min; 100% = 57 uM dopamine signal; P14416; hit rate 0.23% among 360,000; AID 624464; active = potentiation of 50% or more; inconclusive = 30% to 50%; inactive = 30% or less;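 note: compound concentration not given in the record; tested on top of an EC20 dose of dopamine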
#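 PathHunter beta-arrestin assay in DiscoveRx D2 cells. Compounds were added with an EC20 of dopamine (50 nM final) for 90 min at 37 deg C. Luminescence was read 1 h after detection reagent, with 57 uM dopamine as the EC100 control.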
# Numbers without * were called inactive; ? = inconclusive; . = not tested or not shown.
SMILES,TRPML1 inh,CtBP-E1A inh,Six1-Eya2 blk,TRPV1 PAM,TRPML1 agonist,D2 PAM
N#Cc1ccccc1NC(=O)COC(=O)c1cccs1,2,8,12,.,-0.5,-5
Cc1c(C(=O)OCC(=O)N2CCCCC2C)oc2ccccc12 (stereo unspecified),-3,9,-2,-20,0.3,1
CC1=C(C#N)C(Nc2cc(C)ccn2)(C(F)(F)F)C(=O)N1 (stereo unspecified),0,9,-2,?,-0.1,7
Nc1scc(-c2ccncc2)c1Cl,0,-2,-9,-22,4.9,-3
COc1ccc(/C=C2\SC(=S)N(C(C(=O)O)c3ccccc3)C2=O)c(OC)c1 (stereo unspecified),13,.,-15,1,-0.6,-12
Cc1cc(C(=O)NNC(=O)c2ccc(NC(=O)CC#N)cc2)c(C)o1,15,.,-9,5,-0.8,3
N#CCCCSc1nnc(Cc2ccc3c(c2)OCO3)o1,12,5,8,3,1.9,-22
Cc1ccc(CNC(=O)C2CCC(=O)N(Cc3cccc(C(F)(F)F)c3)C2)o1 (stereo unspecified),11,1,-20,.,-0.2,0
Cc1ccc(OCC(=O)Nc2oc(-c3ccccc3)c(-c3ccccc3)c2C#N)cc1,4,-5,-12,.,1.2,-1
O=C1c2ccccc2C(=O)N1Cc1nc(-c2ccncc2)no1,21,4,1,-2,-0.3,-11
O=C(CCCn1c(=O)[nH]c2ccccc2c1=O)N1CCN(c2ccccn2)CC1,11,-1,-2,12,-0.9,-5
Cc1ccc(SCCn2nc(C(=O)O)c3ccccc3c2=O)cc1,13,-1,-4,-5,4.7,7
O=S(=O)(c1ccc(OCC(O)CNC23CC4CC(CC(C4)C2)C3)c(Cl)c1)N1CCOCC1 (stereo unspecified),9,0,-5,-8,0.7,-5
O=C(CCCN1C(=O)c2cccc3cccc(c23)C1=O)NCc1cccnc1,10,4,-1,-23,-1.2,-16
CC(C)OC(=O)c1cccc(C(=O)Oc2ccccc2)n1,43,13,0,-1,-0.3,-12
CC(C)(CNC(=O)CC1C(=O)NCCN1Cc1cccc(F)c1F)N1CCOCC1 (stereo unspecified),-15,0,4,0,-0.8,-10
Cc1oc(/N=C/c2ccccc2)c(C#N)c1C,-8,-16,18,5,1.9,2
COC(=O)c1cc(C(=O)OCC(=O)NNC(=O)c2cccs2)cc([N+](=O)[O-])c1,-17,5,6,21,1.6,71*
O=C(NC(=S)Nc1cc(C(F)(F)F)ccc1N1CCOCC1)c1ccco1,4,-7,-3,-5,1.1,-5
COC(=O)c1ccc(NC(=O)CNS(=O)(=O)c2cccs2)cc1,-9,-13,-9,22,0.8,4
O=C(NNC(=S)NC(=O)c1sc2ccccc2c1Cl)c1ccc(Cl)cc1,17,8,0,-16,21,-18
O=C(C1CCC1)N1CCN(c2ccc(C(F)(F)F)cc2[N+](=O)[O-])CC1,-14,-6,-10,12,2.2,-8
Nc1nc(SCC(=O)c2cc3ccccc3o2)n[nH]1,-3,.,-2,4,0.7,-9
COc1ccccc1N1CCN(C(=S)NC(=O)/C=C/c2ccccc2)CC1,-2,0,19,-2,1.2,0
CC1(C(=O)Nc2ccc3c(c2)OCO3)Cc2c(-c3cccc(C(F)(F)F)c3)ccnc2O1 (stereo unspecified),.,-12,-13,.,-0.1,-10
CN(CC(=O)Nc1ccc(F)cc1)C(=O)CSc1nc2ncc(Cl)cc2[nH]1,-4,19,1,1,0.8,-11
O=C(c1ccc(SCc2ccco2)c([N+](=O)[O-])c1)N1CCOCC1,-20,-1,5,2,-0.3,-5
Cc1cccc(NC(=S)N(C)Cc2cn(C)c3ccccc23)c1,9,-2,-29,?,0.9,-7
COC(=O)c1ccc(S(=O)(=O)N2CCCN(Cc3cccc(Br)c3F)CC2)n1C,38,.,-3,-15,1.6,-8
Cc1n[nH]c(C)c1CCNC(=O)C1CCC(=O)N(Cc2ccccc2F)C1 (stereo unspecified),-20,1,1,0,-0.1,-3
CCOc1ccccc1-c1n[nH]c(=S)o1,-7,5,3,28,-0.2,7
O=C(CN1C(=O)C2C3C=CC(C3)C2C1=O)Nc1ccc2c(c1)OCCO2 (stereo unspecified),-11,2,3,19,-0.4,-15
Cc1ccccc1C1c2[nH]c3ccccc3c2C[C@H]2C(=O)N(c3ccccc3C(=O)NCCN3CCOCC3)C(=O)N12 (stereo partly specified),.,1,-3,15,.,-80
COc1cccc(CNC(=O)[C@H](CCSC)NC(=O)N2CCn3c2nc2ccccc23)c1,-9,-8,-4,-3,1.1,-6
COCC(C)n1c(C)cc(C(=O)COC(=O)CN=C2NS(=O)(=O)c3ccccc32)c1C (stereo unspecified),9,2,-2,7,-0.4,-7
COC(=O)c1c(NC(=O)Cn2cnc([N+](=O)[O-])n2)sc2c1CCC(C)C2 (stereo unspecified),-8,-4,-19,9,-0.1,28
CCOC(=O)Cn1c(C(=O)OCC)cc2sccc21,-16,0,7,-5,1.2,3
CC(C)[C@H](CO)NC(=O)[C@H]1O[C@@H](n2ccc(N)nc2=O)[C@H](O)[C@@H]1O,.,6,2,.,-0.5,-4
Cc1ccc(NC(=O)COC(=O)CSC(=S)N2CCOCC2)cc1,8,.,0,-18,0.8,-7
CC(=O)Nc1ccc(N=Nc2c(C)[nH]n(C(N)=S)c2=O)cc1,-14,.,-5,4,0.5,-17
Cc1ccccc1S(=O)(=O)Cc1ccc(C(=O)N2CCN(c3cccc(C)c3C)CC2)o1,29,-4,-4,17,0.3,-16
Cc1oc(C(C)(C)C)c(CN2CCCC2)c1C(=O)O,1,0,2,-4,-0.4,-4
O=C(CN1CCOCC1)Nc1ncc(Cc2cccc(Cl)c2)s1,31,.,1,-24,0.3,-6
COc1ccc(S(=O)(=O)N(C)C[C@H]2Oc3c(NC(=O)Nc4c(C)noc4C)cccc3C(=O)N([C@@H](C)CO)C[C@H]2C)cc1,8,7,1,.,-0.5,.
O=C(CCN1C(=O)C2C3C=CC(C4CC34)C2C1=O)Oc1ccccc1 (stereo unspecified),16,.,1,0,0.1,-3
S=c1nc(C2CCCCC2)[nH][nH]1,5,-1,4,-5,-0.3,3
CCC1CCc2sc(C(=O)O)cc2C1 (stereo unspecified),-4,3,11,3,0.0,-3
O=C(NNC(=O)c1ccc(Br)o1)c1ccc(NS(=O)(=O)c2cccs2)cc1,-9,1,6,.,1.5,-5

# Quoted at random: 2 records from the list
SMILES,TRPML1 inh,CtBP-E1A inh,Six1-Eya2 blk,TRPV1 PAM,TRPML1 agonist,D2 PAM
CCC1CCc2sc(C(=O)O)cc2C1 (stereo unspecified),-4,3,11,3,0.0,-3
CC(=O)Nc1ccc(N=Nc2c(C)[nH]n(C(N)=S)c2=O)cc1,-14,.,-5,4,0.5,-17

# New compounds follow.
SMILES,TRPML1 inh,CtBP-E1A inh,Six1-Eya2 blk,TRPV1 PAM,TRPML1 agonist,D2 PAM
O=C(CNC(=S)N(Cc1ccccc1Cl)C1CCCC1)NCCCN1CCOCC1,-1,-2,-1,10,-0.4,-2
O=C(O)C1CCCCC1C(=O)NCCc1ccc(F)cc1 (stereo unspecified),-6,-4,10,2,0.6,-2
Cc1nc2ccc(Cl)cc2c(-c2ccccc2F)c1CC(=O)O,12,0,2,-9,-0.6,-8
O=C(NCC1CCOCC1)c1ccc(-c2ccc(F)c(F)c2)c2ccoc12,.,-2,-5,.,-0.8,-7
Cc1ccccc1COCCN1CCN(S(=O)(=O)c2ccccc2)CCC1=O,0,4,-4,1,-0.4,-5
COCCCNC(=O)Cn1ncc2ccsc2c1=O,0,4,2,-17,0.0,0
COc1cc(CNC(=O)c2cc(-c3ccc(F)cc3C)n[nH]2)cc(OC)c1,.,0,-11,.,-0.3,-10
Cc1ccc(N(CC(=O)Nc2ccc(C)cc2C)S(=O)(=O)N2CCCC2)cc1,-5,7,-3,-7,-0.1,-8
CCN(C(=O)Cc1ccc(NC2=NC3CS(=O)(=O)CC3S2)cc1)c1ccccc1 (stereo unspecified),18,-1,0,-10,-0.6,0
Cc1cc(C)nc(N(C#N)CCOc2ccc(Cl)cc2)n1,36,4,13,-4,-0.3,-12
CCOC(=O)C1C(=O)CC(C)(O)C(C(=O)OCC)C1/C=C/c1ccccc1 (stereo unspecified),-14,3,2,-9,1.2,-4
O=C(C[n+]1cc(-c2ccccc2)n2c1CCC2)Nc1nc(-c2ccc(F)cc2)cs1,-6,-7,-7,0,-0.5,-20

# Structural class, the entries above containing a CF3 group.
SMILES,TRPML1 inh,CtBP-E1A inh,Six1-Eya2 blk,TRPV1 PAM,TRPML1 agonist,D2 PAM
CC1=C(C#N)C(Nc2cc(C)ccn2)(C(F)(F)F)C(=O)N1 (stereo unspecified),0,9,-2,?,-0.1,7
Cc1ccc(CNC(=O)C2CCC(=O)N(Cc3cccc(C(F)(F)F)c3)C2)o1 (stereo unspecified),11,1,-20,.,-0.2,0
O=C(NC(=S)Nc1cc(C(F)(F)F)ccc1N1CCOCC1)c1ccco1,4,-7,-3,-5,1.1,-5
O=C(C1CCC1)N1CCN(c2ccc(C(F)(F)F)cc2[N+](=O)[O-])CC1,-14,-6,-10,12,2.2,-8
CC1(C(=O)Nc2ccc3c(c2)OCO3)Cc2c(-c3cccc(C(F)(F)F)c3)ccnc2O1 (stereo unspecified),.,-12,-13,.,-0.1,-10

# Other entries.
SMILES,TRPML1 inh,CtBP-E1A inh,Six1-Eya2 blk,TRPV1 PAM,TRPML1 agonist,D2 PAM
CCOC(=O)CSC1=C(C#N)C(c2ccc(C)cc2)C2=C(CCCC2=O)N1 (stereo unspecified),11,-6,10,4,-0.1,9
O=[N+]([O-])c1ccccc1CN1CCN(Cc2c[nH]c3ccccc23)CC1,4,-14,-10,17,-0.2,-21
Cc1cccc(C)c1NS(=O)(=O)c1cc2c3c(c1)CCN3C(=O)CC2,4,0,11,-8,0.1,26
O=C(NCCc1ccccc1)c1cccc(N2CCCC2=O)c1,-4,.,8,-13,0.2,-1
O=C(O)CCCC(=O)N1CCOCCOCCOCCOCC1,-3,3,5,15,1.5,-5
Cc1ccccc1OCC(=O)NCCc1nc2ccccc2[nH]1,4,13,-7,-4,-0.7,-24
CNC(=O)c1[nH]cnc1C(=O)N[C@@H](CC(C)C)C(=O)OCc1ccccc1,-3,.,-10,-2,-0.2,-7
CC(C)(C)c1ccc(-n2ncc3c2CCCC3NC(=O)c2ccco2)cc1 (stereo unspecified),10,2,-3,.,1.1,-20
O=C(NCCCN1C(=O)c2ccccc2C1=O)OCc1ccccc1,-3,4,-6,.,1.2,-14
O=C1CC(=O)N(Cc2cccs2)C(=O)N1,5,4,1,4,0.3,-1
CN(C(=O)CSc1ncccn1)C1CCS(=O)(=O)C1 (stereo unspecified),-11,-3,2,.,-0.5,-5
O=C(CNC(=O)c1ccco1)N=Nc1c(O)[nH]c2ccc(Br)cc12,-14,-8,1,5,1.4,-18
Cc1ccc(C)c(NC(=O)c2nnn(Cc3ccccc3C)c2N)c1,-5,4,1,16,1.5,-7
COc1ccc(C(c2nnnn2CCc2ccccc2)N2CCN(C3CCCC3)CC2)cc1 (stereo unspecified),12,-3,0,2,-0.1,-27
CCC(CCC(=O)Nc1cccc([N+](=O)[O-])c1)C(=O)O (stereo unspecified),14,3,4,8,-0.5,-3
COc1ccc(C=O)cc1Cn1c(C)cc(C)c(C#N)c1=O,14,3,-5,12,1.0,1
CCOC1=C2[C@@H](CN(S(=O)(=O)c3ccc(C)cc3)[C@H]2c2ccccc2F)[C@H]2C(=O)N(c3ccccc3)C(=O)[C@H]2C1,31,6,0,.,0.8,-10
